Screening results (PubChem)
Sfp inh: Sfp phosphopantetheinyl transferase inhibition | Biochemical Sfp PPTase activity, qHTS | Potency, µM, inactives show max response, negative = inhibition, actives largely listed as inhibitors | hit rate 3.5% among 310,000 | Q9F4F7; active = well fitted inhibition curve with a large enough effect; inconclusive = small, poorly fitted or top-dose-only effect, or another doubt; inactive = no such curve, though single readings can be large or run the other way;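 note: the enzyme is Sfp with the accession as filed and its product quenches rhodamine fluorescence; potency is the fitted concentration of half-maximal effect; 0% = enzyme reaction without inhibitor and -100% = no enzyme wells; top concentration of the series not given in the record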
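Buffer: 50 mM Hepes-Na pH 7.6, 10 mM MgCl2, 0.01% Nonidet P-40, 0.01% BSA. Enzyme 15 nM, pre-exposed to compound 15 min; substrates then added and fluorescence change tracked over 30 min.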
TRPML1 blocker: inhibitors of human TRPML1 channel. Q9GZU1. TRPML1-inducible cells, Ca2+ dye fluorescence, FDSS; stronger effect = lower value; inhibition of EC80 agonist-evoked calcium signal. activity change, negative = inhibition, % (concentration not given with the values). hit rate 0.02% among 390,000. AID 624415; in the data active means activity change below about -50%; inconclusive means about -30% to -50%; inactive means above about -30%;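 note: stimulus is agonist 54-4 at its EC80 concentration; % is set by controls: 0 for no effect and ±100 for the full control effect; compound concentration not given in the record; the text of the record puts the active cut at -80%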
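Calcium fluorescence in TRPML1-DL cells induced overnight with Tet: a 110 s read after compound pin addition, then a 110 s antagonist read after challenge with 54-4 at 4 uM final (EC80).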
gsp antag: antagonists of gsp mutant (McCune-Albright syndrome); Potency, µM (series often up to 76.9 µM), inactives show at the highest dose activity change, negative = inhibition, actives largely listed as inhibitors; gsp-mutant cells, cAMP HTRF, 30 min; control for the full effect not named in the record; hit rate 0.4% among 340,000; AID 624288; active = falling curve of any shape with a large fitted effect; inconclusive = falling curve, mostly with a smaller effect; inactive = flat or rising curve; cell line not stated here;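 note: intracellular cAMP measured with PDE inhibitor Ro 20-1724 present during compound exposure; potency is the fitted concentration of half-maximal effect; % is set by controls: 0 for no effect and ±100 for the full control effect; nearly all actives have a fitted effect of over 65% in size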
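G418-selected cells were plated in DMEM/10% FBS for 16-24 h at 37C, then treated with compounds plus the PDE inhibitor […] (300 uM solution added) for 30 min at 37C. Intracellular cAMP was measured by HTRF after 30 min lysis at room temperature.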
ClpP mod: qHTS Assay for Activators of ClpP; ATP-dependent Clp protease proteolytic subunit (Bacillus subtilis (strain 168)), P80244; purified B. subtilis ClpP, FRET peptide cleavage, 20 min; Potency, µM (titrated, usually from 57.5 µM), for inactives: top-dose activity change, negative = active; hit rate 1.9% among 340,000; AID 651965, 2013; active = well fitted falling curve with a large enough effect; inconclusive = small, poorly fitted or top-dose-only effect; inactive = no such curve, though single readings can be large or run the other way; note: potency is the fitted concentration of half-maximal effect; the source files actives as falling curves though it sought activators and does not explain the sign; nearly all actives have a fitted effect of over 65% in size; many hits overshoot -100%
Target sequence (P80244 whole entry, looked up): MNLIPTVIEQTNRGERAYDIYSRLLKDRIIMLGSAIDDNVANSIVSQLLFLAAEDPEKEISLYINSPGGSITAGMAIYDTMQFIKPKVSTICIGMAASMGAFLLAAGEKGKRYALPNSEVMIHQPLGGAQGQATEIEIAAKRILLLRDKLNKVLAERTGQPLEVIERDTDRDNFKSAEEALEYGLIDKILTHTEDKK
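Buffer: 100 mM Tris/HCl pH8, 100 mM KCl, 0.05% low protease BSA, 2.5% glycerol, 0.01% Tween-20. ClpP 10 microg/mL final; 20 min RT; delta FRET normalized to ADEP and DMSO controls.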
Menin MLL FP FL: menin-MLL binding inhibition, fluorescein peptide | Fluorescence polarization, fluorescein-MLL peptide displacement from menin | FP activity change, % at 61.4 µM | 290,000 tested, under 10 active; inconclusive = falling polarisation curve, or a change in total fluorescence; inactive = total fluorescence flat and polarisation flat or rising; no compound was filed as active; the % refers to the polarisation; negative = inhibition;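 note: % of control where 0% means no effect; inhibitors lower the polarisation; unlabelled MLL peptide was the positive control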
TRPV1 potentiator: human TRPV1 potentiation; TRPV1-expressing cells, Fluo-8 calcium influx, capsaicin EC20 potentiation; host cell line not named in the record; control for the full effect not named in the record; Q8NER1; potentiation, % at 8.33 µM; hit rate 0.02% among 320,000; active means potentiation above 80%; inconclusive means 30% to 80%; inactive means below 30%; note: 0% is about no effect
Target sequence (Q8NER1 whole entry, looked up): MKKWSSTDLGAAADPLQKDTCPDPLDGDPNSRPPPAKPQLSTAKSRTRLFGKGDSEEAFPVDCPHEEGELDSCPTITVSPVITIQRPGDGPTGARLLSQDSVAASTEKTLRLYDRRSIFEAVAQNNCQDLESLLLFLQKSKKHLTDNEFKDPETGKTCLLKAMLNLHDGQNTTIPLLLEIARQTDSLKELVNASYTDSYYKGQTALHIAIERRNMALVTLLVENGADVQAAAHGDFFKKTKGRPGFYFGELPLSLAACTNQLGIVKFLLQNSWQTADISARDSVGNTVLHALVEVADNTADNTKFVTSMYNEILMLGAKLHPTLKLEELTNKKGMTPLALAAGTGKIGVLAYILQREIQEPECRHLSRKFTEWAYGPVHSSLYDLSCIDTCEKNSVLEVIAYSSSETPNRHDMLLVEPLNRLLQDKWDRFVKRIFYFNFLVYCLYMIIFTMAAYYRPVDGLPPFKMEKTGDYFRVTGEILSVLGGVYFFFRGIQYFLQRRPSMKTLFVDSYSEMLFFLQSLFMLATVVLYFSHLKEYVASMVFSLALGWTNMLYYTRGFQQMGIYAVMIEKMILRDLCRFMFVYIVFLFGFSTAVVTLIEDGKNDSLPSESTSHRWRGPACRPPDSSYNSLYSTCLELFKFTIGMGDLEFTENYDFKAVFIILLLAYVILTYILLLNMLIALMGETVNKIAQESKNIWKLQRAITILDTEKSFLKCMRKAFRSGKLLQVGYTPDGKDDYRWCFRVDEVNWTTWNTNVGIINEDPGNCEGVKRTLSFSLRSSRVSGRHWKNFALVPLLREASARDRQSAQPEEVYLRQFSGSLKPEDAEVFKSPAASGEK
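TRPV1-expressing cells were cultured overnight at 35.5C and loaded with Fluo-8 calcium dye for 40 to 90 min at room temperature. After a 10 s baseline, compound was added and calcium influx was read kinetically for 3 min (ex 480/em 520 nm).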
gsp ag: agonists of gsp mutant (McCune-Albright syndrome) | gsp mutant cells, cAMP HTRF, 30 min; control for the full effect not named in the record | Potency, µM (doses to about 76.9 µM), for inactives: top-dose activation (cAMP increase), most hits filed as activators | hit rate 0.13% among 340,000 | AID 624287; active = well fitted activation curve with a large enough effect; inconclusive = small, poorly fitted or top-dose-only effect, or another doubt; inactive = no such curve, though single readings can be large or run the other way; cell line not stated here;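 note: phosphodiesterase inhibitor Ro 20-1724 added with compounds to block cAMP breakdown; potency is the fitted concentration of half-maximal effect; nearly all actives have a fitted effect of over 60% in size; about a fifth of the inactives were tested at one dose only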
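Cells in DMEM/10% FBS with G418 were pretreated with compounds in DMSO plus […] (300 uM stock) for 30 min at 37C. cAMP was measured by HTRF (cAMP-d2 plus anti-cAMP antibody-K) after 30 min at room temperature.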
Starred values were filed as active, the others as inactive; ? = inconclusive; · = no result given; & = joins results of further samples; [ ] = another dose, or the depositor's remark.

molecule	Sfp inh	TRPML1 blocker	gsp antag	ClpP mod	Menin MLL FP FL	TRPV1 potentiator	gsp ag
O=C(COC(=O)C1CCN(S(=O)(=O)c2ccccc2)CC1)NC(=O)c1ccc(OC(F)F)cc1	10%	15	5%	1.5%	-2.5	-8	-5%[15.4 µM]
CCOc1c(Cl)cc(C2NC(=O)NC(C)=C2C(=O)NCc2ccccc2)cc1OC (stereo not drawn)	13%	-8	6%	-0.5%	1.8	5	-12%
Cc1nc(SC(C)C(=O)NCC2CCCO2)c2cc(-c3ccccc3)sc2n1 (stereo not drawn)	·	16	-30%	-17%	·	8	-5%[15.4 µM]
CN(C)/C=C/C(=O)c1ccc(Oc2ncccn2)cc1	7%	5	-10%	·	-3.2	2	1%[15.4 µM]
CCN(CC)CCOC(=O)C12CC3CC(CC(C3)C1)C2	18%	7	13%	0.1%	0.4	-4	-41%[inhibitor]
N=C1C(c2nc(-c3ccc(Cl)cc3)cs2)=C(O)CN1CCCN1CCOCC1	-14%	-8	14%	-0.5%	5.0	-9	-38%[inhibitor]
Cc1ncsc1C(=O)Nc1cccc(C(F)(F)F)c1	-5%	14	4%	·	0.2	-11	4%
C=CCN1C(=O)[C@H]2CCC=C[C@H]2[C@@H]1c1cccc(C)c1	·	-3	1%	-2.2%	·	·	·
CC1=N/C(=C/c2ccco2)C(=O)O1	?	-3	2%	·	3.0	16	-7%[15.4 µM]
COc1ccc(OC)c2c(C)cc(N3CCN(C(=O)c4ccc(C)cc4)CC3)nc12	11%	10	-27%	·	-0.4	19	5%[15.4 µM]
O=[N+]([O-])C1C(c2ccccc2)C12c1ccccc1-c1ccccc12 (stereo not drawn)	·	3	·	-2.2%	·	·	0%
O=C(O)Cc1ccc(-n2cccc2)cc1	8%	7	-12%	·	9.1	-3	-43%[inhibitor]

The listing continues:
molecule	Sfp inh	TRPML1 blocker	gsp antag	ClpP mod	Menin MLL FP FL	TRPV1 potentiator	gsp ag
Cc1cc(C)c(NC(=O)CN(C)C(=O)C2CC(=O)N(c3cccc4ccccc34)C2)c(C)c1 (stereo not drawn)	·	-9	-5%	-2.8%	·	-4	1%
C=CCN1C(=O)/C(=C2/Sc3ccc(OC)cc3N2C)SC1=Nc1ccc(OC)cc1	2%	·	·	·	-1.5	-13	·
COc1cccc(NC(=O)CNC(=O)c2ccc(C)o2)c1	18%	5	11%	-0.6%	-1.1	-1	7%[15.4 µM]
CCC(C)Sc1ccc([C@@H]2[C@@H]3C(=O)N(C)C(=O)[C@@H]3[C@]3(C(=O)OC)CCCCN23)cc1OC (stereo partly drawn)	·	11	-13%	-6.8%	·	-10	·
Cc1ccc(-c2nnn(CCC(=O)Nc3ccc4c(c3)OCO4)n2)cc1	4%	-15	-3%	1.8%	-0.1	-13	2%
Cc1cc(NC(=O)CN2C(=O)NC(C)(CC(C)C)C2=O)no1 (stereo not drawn)	·	5	17%	-0.3%	·	·	?
COc1ccccc1CNC(=O)c1cccc(NC(=O)c2ccccc2)c1	8%	23	-14%	-2.5%	2.7	6	-37%
Cc1ccccc1C(=O)Nc1ccc(Cl)cn1	13%	13	2%	-1.0%	0.0	-11	-11%
CN1C(=O)S/C(=C\c2ccc(-n3cncn3)cc2)C1=O	-5%	1	0%	-3.1%	0.8	-2	-3%
Cn1c(=O)c2c(SCC(=O)N3CCCC3)nc(-c3ccccc3)nc2n(C)c1=O	20%	-7	-2%	?	·	15	10%[15.4 µM]
COc1ccc(O)c(-c2cc(-c3ccccc3[N+](=O)[O-])[nH]n2)c1	-1%	28	-14%	-3.4%	2.0	2	-4%
CC(C)(C)[Si](OCC[C@@H]1C[C@@]1(C)[C@@H](NP(=O)(c1ccccc1)c1ccccc1)c1ccccc1)(c1ccccc1)c1ccccc1	6%&15%	·	·	·	0.7&-6.5	21	·

Additional results follow:
molecule	Sfp inh	TRPML1 blocker	gsp antag	ClpP mod	Menin MLL FP FL	TRPV1 potentiator	gsp ag
CCn1c(SCC(=O)NCc2ccco2)nnc1-c1cccs1	14µM*	8	-2%	-1.7%	6.9	-20	15%
CC(C)C[C@@H](CNCC(=O)[C@H](C)NC(=O)c1[nH]cnc1C(=O)N[C@@H](C)CN)NC(=O)c1nc[nH]c1C(=O)N[C@@H](CO)C(=O)O	·	25	8%	0.3%	·	·	·
COc1ccc(-c2nnc(SCc3ccc(C(=O)O)cc3)n2C)cc1OC	19%	-9	6%	0.6%	0.1	-18	0%
O=C(O)c1cccc(NC(=S)NC(=O)C(c2ccccc2)c2ccccc2)c1	7%	2	-13%	12%	-2.7	2	24%
O=C(c1c[nH]c2ccccc12)C(Cl)c1ccccc1 (stereo not drawn)	-2%	16	-26%	1.2%	-6.0	11	-2%
COc1ccc(-c2nn(-c3ccccc3)cc2C(=O)N2c3ccc(C)cc3C3CN(C)CCC32)cc1 (stereo not drawn)	6%	50	8%	·	-1.8	-15	-12%[15.4 µM]
Cn1c(=O)c2c(SCC(=O)NCc3ccco3)nc(-c3ccccc3Cl)nc2n(C)c1=O	1%	1&4	-27%	-0.6%&-1.9%	-0.7	2	-23%
Oc1ccccc1C=NNC(=S)NC1CC2C=CC1C2 (stereo not drawn)	·	-1	·	-22%	·	·	-43%[inhibitor]
CCOc1ccccc1-c1nc(CN(Cc2cnn(C)c2)C(C)C)c(C)o1	16%	20	1%	·	-1.3	-5	17%
COc1ccc(Cl)cc1NC(=O)CCNC(=O)Cn1ccc2ccccc2c1=O	-4%	-4	17%	-26%	6.6	-1	-7%[15.4 µM]
COc1ccc(S(=O)(=O)N2CCN(CC(=O)c3ccc(O)c(O)c3)CC2)cc1	45µM*	-2	-2%	-0.6%	·	-7	-45%[inhibitor]
Cc1cc(NC(=O)CSc2nnc(C)n2-c2ccccc2C)no1	7%	-2	9%	·	-1.4	16	2%[15.4 µM]

Next section.
molecule	Sfp inh	TRPML1 blocker	gsp antag	ClpP mod	Menin MLL FP FL	TRPV1 potentiator	gsp ag
COc1ccc(CCNS(=O)(=O)c2c(N)n(C)c(=O)n(C)c2=O)cc1OC	15%	12	8%	·	-2.7	-4	?
Cc1ccc(NS(=O)(=O)c2cccc3nsnc23)cc1	-7%	-8	1%	1.1%	2.8	-3	0%
O=S1(=O)CSCS(=O)(=O)C1	·	0	13%	·	·	·	-1%
CCc1ccc(C(=O)NNC(=O)[C@H](C)NC(=O)c2ccco2)cc1	·	8	14%	-0.2%	·	·	-10%
CC(=O)c1c(C)[nH]c(C(=O)COC(=O)c2ccc3c(=O)n4c(nc3c2)CCC4)c1C	17%	-8	-14%	2.7%	1.9	0	-40%[inhibitor]
CC1(C)C(=O)Nc2ccccc2N1C(=O)COC(=O)c1cccnc1Cl	·	-1	5%	2.2%	·	·	-2%
CN1CCN(C(=O)C2CC(=O)N(c3ccc(F)c(Cl)c3)C2)CC1 (stereo not drawn)	11%	-6	9%	0.4%	-1.3	·	3%
CC(=O)c1ccc(NC(=O)c2ccc(C)c(Br)c2)cc1	-3%	9	-17%	·	9.0	0	5%[15.4 µM]
CN(CC(=O)Nc1c(F)cccc1F)Cc1cccs1	-8%	-24	12%	·	1.8	2	-11%
COCC(C)n1c(SCC(=O)NC(=O)Cc2ccccc2)nc2ccccc2c1=O (stereo not drawn)	·	12	7%	-0.4%	·	-2	18%
CCc1ccc(NC(=O)c2cc(S(=O)(=O)N3CCc4ccccc43)cn2C)cc1	12%	9	-8%	-22%	-0.6	-19	-36%[inhibitor]
CCCCCCCCOC(=O)C1=C(C)Nc2nnnn2C1c1cccs1 (stereo not drawn)	9%	7	-8%	-2.1%	-2.5	1	-2%
O=[N+]([O-])c1ccc(N2CCN(Cc3ccccc3)CC2)nc1	-24%	-12	6%	·	4.0	12	-8%[15.4 µM]
COc1ccccc1NC(=O)CC1C(=O)Nc2ccccc2N1C(=O)c1ccccc1 (stereo not drawn)	13%	47	-52%	·	2.6	-4	1%[15.4 µM]

Entries of single compounds, quoted from the list. Order of values: Sfp inh, TRPML1 blocker, gsp antag, ClpP mod, Menin MLL FP FL, TRPV1 potentiator, gsp ag
O=C(O)Cc1ccc(-n2cccc2)cc1 in the list: 8%, 7, -12%, ·, 9.1, -3, -43%[inhibitor]
CN(CC(=O)Nc1c(F)cccc1F)Cc1cccs1 in the list: -8%, -24, 12%, ·, 1.8, 2, -11%
CC(C)(C)[Si](OCC[C@@H]1C[C@@]1(C)[C@@H](NP(=O)(c1ccccc1)c1ccccc1)c1ccccc1)(c1ccccc1)c1ccccc1 in the list: 6%&15%, ·, ·, ·, 0.7&-6.5, 21, ·
O=S1(=O)CSCS(=O)(=O)C1 in the list: ·, 0, 13%, ·, ·, ·, -1%
COc1ccc(CCNS(=O)(=O)c2c(N)n(C)c(=O)n(C)c2=O)cc1OC in the list: 15%, 12, 8%, ·, -2.7, -4, ?

Of the compounds above, 3 have a nitro group on carbon.
molecule	Sfp inh	TRPML1 blocker	gsp antag	ClpP mod	Menin MLL FP FL	TRPV1 potentiator	gsp ag
O=[N+]([O-])C1C(c2ccccc2)C12c1ccccc1-c1ccccc12 (stereo not drawn)	·	3	·	-2.2%	·	·	0%
COc1ccc(O)c(-c2cc(-c3ccccc3[N+](=O)[O-])[nH]n2)c1	-1%	28	-14%	-3.4%	2.0	2	-4%
O=[N+]([O-])c1ccc(N2CCN(Cc3ccccc3)CC2)nc1	-24%	-12	6%	·	4.0	12	-8%[15.4 µM]
